Screens from PubChem BioAssay.
Polio RdRp inh = poliovirus RdRp elongation inhibitors, primary screen, biochemical, fluorescence polarization, total intensity | % elongation, % (compound at 16.7 µg/mL) | AID 588519, 2011 | 150,000 tested, 0.66% active | poliovirus polymerase elongation; stronger effect = lower value | Genome polyprotein (Poliovirus type 1 (strain Mahoney)), P03300; in the data active = % elongation below about 90%; also: some results filed as inactive read as strong as hits
Target sequence (P03300 1749-2209 limits assumed): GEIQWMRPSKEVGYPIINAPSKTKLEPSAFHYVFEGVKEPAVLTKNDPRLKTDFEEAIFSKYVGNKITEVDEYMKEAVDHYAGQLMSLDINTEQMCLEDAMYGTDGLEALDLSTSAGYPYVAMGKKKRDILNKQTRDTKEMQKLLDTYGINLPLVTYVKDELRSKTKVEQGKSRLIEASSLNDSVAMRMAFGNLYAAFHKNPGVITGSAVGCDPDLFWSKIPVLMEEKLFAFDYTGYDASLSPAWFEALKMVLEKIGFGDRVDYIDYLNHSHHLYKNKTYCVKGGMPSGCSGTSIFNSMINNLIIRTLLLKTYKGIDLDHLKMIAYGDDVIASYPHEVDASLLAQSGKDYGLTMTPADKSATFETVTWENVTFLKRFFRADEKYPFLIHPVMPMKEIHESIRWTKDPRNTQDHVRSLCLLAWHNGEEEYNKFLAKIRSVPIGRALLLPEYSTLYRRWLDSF
Mtb MenB inh = M. tuberculosis MenB inhibitors, primary screen, biochemical, absorbance | 1,4-dihydroxy-2-naphthoyl-CoA synthase (Mycobacterium tuberculosis (strain ATCC 25618 / … | MenB enzyme assay, absorbance read-out; some hits fall short of the stated cut | inhibition, %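 (about 12 µg/mL by stock and volumes)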 | 100,000 tested, 0.43% active;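 active = mean of two replicates above 30%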;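 also: 0% = no compound and 100% = wells with inactive enzyme; the first replicate is given; strong numbers were not always called active; inactives centre near -10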
Target sequence (P9WNP5 whole entry, looked up): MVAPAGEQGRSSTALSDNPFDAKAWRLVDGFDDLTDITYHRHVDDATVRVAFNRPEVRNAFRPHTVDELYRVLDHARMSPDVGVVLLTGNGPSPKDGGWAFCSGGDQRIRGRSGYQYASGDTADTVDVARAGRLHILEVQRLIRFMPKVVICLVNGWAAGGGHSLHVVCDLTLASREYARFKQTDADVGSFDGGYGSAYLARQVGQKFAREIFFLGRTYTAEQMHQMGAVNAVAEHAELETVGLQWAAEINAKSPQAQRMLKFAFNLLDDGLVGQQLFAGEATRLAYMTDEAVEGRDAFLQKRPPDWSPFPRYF
MbtI inh = MbtI salicylate synthase inhibitors, primary screen, biochemical, fluorescence intensity; P9WFX0; purified MbtI enzyme, fluorescence intensity read-out; inhibition, %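 (about 17 µg/mL by stock and volumes)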; 100,000 tested, 0.89% active;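 active = above 50% in both replicates, above 80% if mildly self-fluorescent; inactive = the rest, strongly fluorescent compounds included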;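 also: 0% = mean of negative and 100% = mean of positive controls; one replicate is shown; some compounds called inactive have numbers as strong as hits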
Polio RdRp inh intensity = recorded beside Polio RdRp inh, whose call it bears; % elongation; measured here: total intensity read-out; formula for this scale not given here;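 total fluorescence in place of polarization; lower means less elongation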
* marks the source's active call; other numbers are inactive results; i = inactive; . = no result given.

Compound | Polio RdRp inh | Polio RdRp inh intensity | Mtb MenB inh | MbtI inh
COc1cccc(C=Nc2ccc(-c3nc4ccc(C)cc4o3)cc2)c1O | 103 | 105 | 2 | .
Cc1ccccc1Nc1nc(N)nc(COC(=O)Cn2[nH]c(=O)c3ccccc3c2=O)n1 | 115 | 120 | -16 | -2
CCOc1ccc(N2CCc3c2nc2ccc(Br)cc2c3N)cc1 | 105 | 105 | -33 | 1
CN(C1CCCCC1)S(=O)(=O)c1ccc2c(c1)c(=O)c(C(=O)NCCN1CCCC1)cn2C | 104 | 99 | 6 | 5
O=C1NC(c2ccccc2)=N/C1=C\c1ccco1 | 95 | 90 | -168 | .
CN(CC(=O)Nc1ccc2c(c1)CCC2)Cc1cccc(F)c1 | 104 | 93 | 3 | 6
CCc1ccccc1NC(=O)CNC1CCCCC1 | 101 | 100 | -12 | -8
N=c1sc2ccccc2n1-c1ccccc1 | 100 | 94 | . | -8
N#Cc1c(N)sn(-c2ccccc2)c1=S | 79* | 80* | -5 | 94*
CC(=O)N1CCN(c2ccc(NC(=O)COc3ccc(Cl)c(C)c3)cc2)CC1 | 103 | 102 | -70 | -11
CCS(=O)(=O)Nc1cccc(C2=NN(S(=O)(=O)CC)C(c3ccccc3)C2)c1 (stereo unspecified) | 100 | 106 | -4 | 7
CN(C)CCNC(=O)Cn1cnc2ccccc2c1=O | 103 | 108 | -35 | -10
COc1cccc(-n2c(=S)sc3c(=O)n(-c4ccccc4)c(SCC4OCCO4)nc32)c1 | 103 | 94 | -21 | -5
COc1ccccc1C(C1=C(O)COC1=O)c1cc2c(cc1O)OCO2 (stereo unspecified) | 99 | 98 | -22 | .
C=CCSc1nnc(NC(=O)NC2CCCCC2)s1 | 105 | 102 | -17 | -10
CC(=O)Nc1ccc(NC(=O)CN(C)S(=O)(=O)c2ccc3c(c2)CCC(=O)N3)cc1 | 98 | 101 | -23 | 9
CCC(N)Cn1nnn(-c2ccccc2)c1=O (stereo unspecified) | 105 | 100 | -14 | -14
C=CCc1ccccc1Oc1cc(F)nc(N)n1 | 100 | 102 | -8 | -6
CC1(C)Cc2c(c(N3CCNCC3)[nH]c(=S)c2C#N)CO1 | 102 | 101 | -9 | 95*
O=C(O)CCN1CCc2ccccc2C1c1ccncc1 (stereo unspecified) | 96 | 103 | 1 | 0
CCc1cccc(NC(=O)C2CCN(Cc3cnn(-c4ccccc4)c3-n3cccc3)CC2)c1 | 104 | 99 | -20 | 5
CC(c1ccccc1)n1cnc2c(oc3ccccc32)c1=O (stereo unspecified) | 100 | 102 | 7 | -2
COC(=O)Cc1cc(=O)[nH]c(/N=C(\N)Nc2cccc(C)c2)n1 | 101 | 102 | 3 | -1
Cc1ccnc2nc(C(=O)Nc3ccc(S(=O)(=O)N4CCCC4)cc3)nn12 | 107 | 110 | 5 | 42
FC(F)(F)COc1nc(NCCOC23CC4CC(CC(C4)C2)C3)nc(OCC(F)(F)F)n1 | 104 | 114 | -49 | .

Five entries from above, with values under each structure.
Fields – Polio RdRp inh	Polio RdRp inh intensity	Mtb MenB inh	MbtI inh
CCc1ccccc1NC(=O)CNC1CCCCC1
  101	100	-12	-8
CC(=O)Nc1ccc(NC(=O)CN(C)S(=O)(=O)c2ccc3c(c2)CCC(=O)N3)cc1
  98	101	-23	9
CCS(=O)(=O)Nc1cccc(C2=NN(S(=O)(=O)CC)C(c3ccccc3)C2)c1 (stereo unspecified)
  100	106	-4	7
O=C(O)CCN1CCc2ccccc2C1c1ccncc1 (stereo unspecified)
  96	103	1	0
Cc1ccnc2nc(C(=O)Nc3ccc(S(=O)(=O)N4CCCC4)cc3)nn12
  107	110	5	42

(further entries)
Compound | Polio RdRp inh | Polio RdRp inh intensity | Mtb MenB inh | MbtI inh
Cc1ccn2cc(CCNC(=O)c3ccc(C(F)(F)F)cc3)nc2c1 | 103 | 105 | 3 | -21
CCCCN(C)C(=O)c1cnn(-c2ccc(C)cc2)c1-n1cccc1 | 101 | 103 | -4 | -5
CCOC(=O)c1oc2ccc(Br)cc2c1N | 101 | 98 | -50 | i
CCCN(CC1CC1)C(=O)CSc1nc(N)cc(N)n1 | 100 | 102 | -17 | 0
CNC(=O)[C@H]1O[C@@H](n2cnc3c(NCc4ccc(I)cc4)ncnc32)[C@H](O)[C@@H]1O | 101 | 102 | -3 | .
NC(=S)NN1N=C(c2ccccc2)CC1=O | 100 | 101 | -153 | 9
CCc1ccccc1NC(=O)CSc1nc2c(c(=O)[nH]1)CCC2 | 104 | 99 | 4 | 10
CN(Cc1ccc(-c2ccc(Cl)cc2)o1)C(=O)CC1Oc2ccccc2NC1=O (stereo unspecified) | 103 | 106 | -9 | 72
Cc1cccc(C2N=C(c3cnccn3)NN2)c1 (stereo unspecified) | 103 | 103 | -10 | -2
O=C(CN1CCCC1)N1c2ccccc2Sc2ccccc21 | 100 | 102 | 16 | -12
Oc1ccc(C2(c3ccccc3O)CCCCC2)cc1 | 103 | 106 | -21 | -22
CCc1nn2c(=O)c(S(=O)(=O)Nc3ccccc3)c(C)nc2s1 | 103 | 97 | -24 | 4
Nc1[nH]c(=O)[nH]c(=O)c1N=Nc1cc(C(=O)O)cc(C(=O)O)c1 | 104 | 107 | -121 | 2
CCN=C1S/C(=C\c2cn(CC(=O)NCCOC)c3ccccc23)C(=O)N1CC | 105 | 101 | -61 | -1
OC(c1cccc(C(F)(F)F)c1)c1nnc(-c2ccccc2)o1 (stereo unspecified) | 103 | 107 | -29 | -10
COCCOc1ccc(C(F)(F)F)cc1NC(=O)c1ccc2c(=O)n3c(nc2c1)CCC3 | 104 | 97 | 12 | 7
CCOC(=O)COc1nc(-c2cccs2)cc(C(F)(F)F)n1 | 105 | 97 | -22 | .
COC(=O)c1cc(S(=O)(=O)Nc2ccsc2C(=O)OC)oc1C | 102 | 100 | 16 | -4
Cc1nnc(SCC(=O)NCc2ccc(F)cc2)n(N)c1=O | 98 | 101 | 12 | 7
O=C(CSc1ccccn1)Nc1cccc(F)c1 | 102 | 102 | 0 | -5
O=C(NCc1cn2ccsc2n1)c1ccccc1C(F)(F)F | 102 | 105 | -27 | -2
CCCC1CCC(c2ccc(OC(=O)c3cccs3)cc2)CC1 (stereo unspecified) | 103 | 107 | -11 | -9
O=S(=O)(Cc1ccc(Br)cc1F)c1cccs1 | 100 | 102 | -11 | 0
O=C1CC(c2ccco2)CC(O)=C1C=NCCN1CCNCC1 (stereo unspecified) | 99 | 102 | -9 | 29
CCN(CC)S(=O)(=O)c1ccc(C(=O)C(C#N)c2nc3ccccc3c(=O)[nH]2)cc1 (stereo unspecified) | 98 | 111 | 1 | 8
O=C(NCc1ccccc1F)C1CC(=O)N(Cc2ccco2)C1 (stereo unspecified) | . | . | 3 | -6
O=C(NCCCSc1ccccn1)Nc1ncccn1 | 103 | 104 | -24 | 3
CCOC(C)n1cccc1-c1ccccc1 (stereo unspecified) | 109 | 105 | -10 | .
Cc1ccc(NC(=O)C(NCCCN2CCCC2=O)c2ccccc2)cc1 (stereo unspecified) | 110 | 121 | -34 | -4
CCCc1nc(C(C)(C)O)c(C(=O)OCc2oc(=O)oc2C)n1Cc1ccc(-c2ccccc2-c2nn[nH]n2)cc1 | 101 | 103 | 3 | -18
CC(C)NC(=O)c1ccc2c(=O)[nH]c3c(C(=O)NC(C)C)sc(=S)n3c2c1 | 103 | 105 | -24 | 13
COc1cccc2c1Oc1ncccc1NC2 | 102 | 103 | -18 | 87
COc1ccc2nc3oc(C(=O)Nc4cc(Cl)c(OC)cc4OC)cc3cc2c1 | 100 | 103 | -2 | -2
CC(=O)N1CCN(C(=S)c2ccc(-c3cccc(Cl)c3Cl)o2)CC1 | 102 | 102 | -24 | 96*
O=C(Nc1ccc(N2CCOCC2)cc1)OCc1ccccc1 | 104 | 103 | -23 | -14
NC(=O)N/N=c1/oc2ccccc2cc1-c1nc2ccccc2[nH]1 | 104 | 113 | -58 | -1
COc1ccc(Cn2c(=O)c3cccnc3n(CC(=O)Nc3ccccc3OC)c2=O)cc1 | 101 | 104 | 2 | -5
CC(=O)Nc1ccc2c(c1)C(C)(C)C(C)N2C (stereo unspecified) | 103 | 105 | . | 5
CCc1c(C)[nH]c(C)c1C(=O)OC | 99 | 102 | -5 | 12
CC(C)(C)C1(OCSC#N)C(=O)N=CN=CN1Cc1ccccc1 (stereo unspecified) | 103 | 107 | -39 | -5
CC(C)(C)n1nnc(-c2ccccc2)n1 | 109 | 111 | -13 | .
CCn1c(SCC(=O)NC2CCCCC2)nnc1C(CO)NC(=O)c1ccccc1 (stereo unspecified) | 101 | 104 | -14 | -16
O=C(CSc1nc2cc(Cl)ccc2o1)NC1CC1 | 105 | 99 | . | 3
Cc1nnn(C23CC4CC(CC(C(=O)NCc5ccc6c(c5)OCO6)(C4)C2)C3)n1 | 99 | 103 | -9 | 2
N#Cc1c(S/C=C(\O)c2cc3ccccc3o2)nc2c(c1C(F)(F)F)CCCC2 | 94 | 120 | -3 | -4
N#Cc1nc(-c2ccc(Cl)cc2)oc1N1CCCC1 | 99 | 97 | 0 | 103
CN(N)c1ccccc1 | 100 | 104 | -4 | 42
c1ccc(C[n+]2ccc(-c3nc4ccccc4s3)cc2)cc1 | 102 | 97 | 3 | 15
C(=Nc1ccccc1)c1ccc(N2CCOCC2)cc1 | 107 | 100 | -22 | -1
CC(Nc1ncnc2c1oc1ccccc12)c1ccccc1 (stereo unspecified) | 107 | 109 | -25 | -47

The list continues:
Compound | Polio RdRp inh | Polio RdRp inh intensity | Mtb MenB inh | MbtI inh
CCc1ccc(/C=N\N2CCN(c3ccccc3)CC2)cc1 | 104 | 103 | -21 | 0
Cc1cc(S(=O)(=O)NN(C)c2cccc(Cl)c2C#N)cc(C)c1F | 98 | 96 | -5 | 0
CC(OC(=O)C1=COCCO1)C(=O)Nc1ccccc1C#N (stereo unspecified) | 108 | 107 | -8 | -6
O=C(CSc1ccc(Cl)cc1)Nc1ccc(NC(=O)c2ccco2)cc1 | 109 | 105 | -32 | .
Cc1nnsc1C(=O)NCc1ccc(F)cc1 | 99 | 103 | -3 | 2
O=C(O)c1ccccc1C1Nc2ccccc2S(=O)(=O)N1Cc1ccccc1 (stereo unspecified) | 103 | 108 | -38 | 0
CN(C(=O)COC(=O)c1ccc(Br)cc1)C1CCCCC1 | 103 | 98 | . | -5
CCOC(=O)c1cc(-c2ccc(S(=O)(=O)N3CCCCC3)s2)on1 | 99 | 102 | -43 | -16
Nc1c(-c2ccccc2)nnn1-c1ccccc1 | 100 | 101 | -17 | -4
N#CC1=C(N)OC2=C(C(=O)CCC2)C12CCCC2 | 98 | 102 | 6 | 0
CNC(=O)Cn1cccc1C(=O)c1ccccc1C | 104 | 107 | -8 | -4
CSc1cccc(NC(=O)CSc2ncccc2C(=O)OC(C)C)c1 | 103 | 104 | -15 | -4
Cc1nnc(SCCOc2ccccc2Cl)[nH]c1=O | 102 | 102 | -14 | 10
COC(=O)c1cn(NC(=O)CSc2ccncc2)c(=O)c2ccccc12 | 100 | 102 | -20 | 24
OCC#CCSc1ncnn1-c1ccccc1 | 100 | 103 | 13 | 4
O=C(CSc1nc2ccccc2c(=O)n1Cc1ccco1)N1CCc2ccccc21 | 107 | 105 | 6 | -7
Cc1cc(N2CCNCC2)nc(C)n1 | . | . | 10 | -5
CCOC(=O)C1=NN(c2ccccc2)C(=O)/C1=C\c1ccc(N(C)C)cc1 | 103 | 101 | -109 | 98*
Cc1cccc(CN2CCCC2CO)c1 (stereo unspecified) | 101 | 103 | -42 | -11
O=C(Nc1ccc2c(c1)CCC2)c1ccccn1 | 103 | 106 | -8 | 194
CCc1cccc(CC)c1NC(=O)COC(=O)Cc1ccsc1 | 100 | 98 | . | -13
C=C1c2ccccc2NC(=S)N1C | 102 | 106 | -17 | -28
NC(=O)NC(=O)Cc1nc2ccccc2s1 | 102 | 117 | -7 | 47
CCS(=O)(=O)c1ccc2oc(SCC(=O)Nc3ccc(OC)cc3OC)nc2c1 | 107 | 101 | -2 | -9
Cc1ccc(Cl)cc1NC(=O)CCN1C(=O)c2ccccc2Sc2ncccc21 | 102 | 102 | 3 | -10

Looked up by structure from above, 2 records:
Compound | Polio RdRp inh | Polio RdRp inh intensity | Mtb MenB inh | MbtI inh
O=C(O)c1ccccc1C1Nc2ccccc2S(=O)(=O)N1Cc1ccccc1 (stereo unspecified) | 103 | 108 | -38 | 0
NC(=O)NC(=O)Cc1nc2ccccc2s1 | 102 | 117 | -7 | 47

The list goes on:
Compound | Polio RdRp inh | Polio RdRp inh intensity | Mtb MenB inh | MbtI inh
CCNc1cc(N2CCN(Cc3ccc(OC)c(OC)c3OC)CC2)c2noc3c2c1C(=O)c1ccccc1-3 | 75 | 196 | -12 | -4
O=S(=O)(Cc1noc(-c2ccno2)n1)Cc1ccco1 | 100 | 102 | 14 | 2
CCC(=O)n1nc(-c2ccco2)nc1SC | 99 | 98 | 8 | 54*
Cc1ccc(C(=O)CSC2=NCCCCC2)cc1 | 93 | 93 | 33* | 16
